# BJeLR viability = BJeLR cell viability loss. BJeLR (HRASV12) viability, CellTiter-Glo ATP luminescence, 48 h; reference of the scale not given here. inhibition, % (no concentration beside the values). actives 0.17% (n = 300,000);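 active = replicate mean above 50%; inconclusive = above 50% but judged a plate artefact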;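 also: 50 nL library stock added to about 25 µL; numbers are from one replicate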
# Mtb hypoxia inh = reduces hypoxia-regulated biosensor signal in M. tuberculosis; M. tuberculosis hypoxia-regulated fluorescent reporter, fluorescence; fluorescence inhibition, % (concentration not given with the values); actives 0.1% (n = 300,000); AID 1159583;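 active = 35 to 45% if threefold the growth effect, above 45% if 1.5-fold the growth effect; inactive = the rest, general growth blockers included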;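 also: wells of about 50 µL received 100 nL stock; 0% = vehicle wells and 100% = reference inhibitor wells; whole bacteria with a GFP reporter of the hypoxia response; strong numbers were not always called active; many hits fall short of the cut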
# PrP 5UTR inh = inhibition of PrP 5' UTR reporter expression; inhibition, % (concentration not given with the values); cell-based PrP 5' UTR mRNA reporter, plate reader; actives 0.35% (n = 340,000);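 active = every replicate at 50% or more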;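 also: 0 = median of the neutral control wells; tested in H4 reporter cells; numbers are from one replicate; inactives centre near -14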
# ugtP null kill = compounds lethal to S. aureus RN4220 ugtP deletion mutant; growth inhibition, % (test concentration not listed); actives 0.54% (n = 330,000); OD600 growth, 16 h; some inactives read as strong as hits; AID 1259309;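 active = z-score under -3 and OD600 up to 0.15 on both plates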;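 also: plate controls were untreated wells for no effect and antibiotic for full effect; wells of about 80 µL received 100 nL stock; the first replicate is given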
# Bead autofluor = flagged as autofluorescent in microsphere protease counterscreen; compound autofluorescence counterscreen, microsphere flow cytometry; hits give high values; fluorescence intensity (concentration not given with the values); actives 3.1% (n = 360,000); AID 624483;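 active = at least 3 SD above the mean of all compounds, about 16000 in these data; inconclusive = too few beads counted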;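 also: 100 nL of 1 mM stock went into each well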
# Sa RN4220 lethal = kills Staphylococcus aureus RN4220 | AID 1259311 | inhibition, % (test concentration not listed) | actives 0.33% (n = 330,000) | S. aureus RN4220 growth, OD600, 16 h;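 active = z-score of -3 or lower and OD600 up to 0.18 on both plates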;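 also: plate controls were untreated cells for no effect and reference antibiotic for full effect; stock transfer was 100 nL into about 80 µL; one replicate is shown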
# Mtb hypoxia inh growth = recorded beside Mtb hypoxia inh, whose call it bears; growth inhibition, %; measured here: M. tuberculosis growth (absorbance);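 0% = vehicle and 100% = reference antibiotic; read after six days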
# * marks the source's active call; other numbers are inactive results; ? = inconclusive; nt = not tested or not shown.
# Every second line gives: BJeLR viability	Mtb hypoxia inh	Mtb hypoxia inh growth	PrP 5UTR inh	ugtP null kill	Bead autofluor	Sa RN4220 lethal
- CC1(C)NC(=O)N(CC(=O)N2CCN(S(=O)(=O)c3ccccc3F)CC2)C1=O
→ nt	-11	-9	6	-2	2764	-1.1
- COc1cc(CC(CC(=O)c2ccc3c(c2)OCO3)C(=O)O)cc(OC)c1OC (configuration not stated)
→ nt	12	7	-30	5	2832	2.0
- CCOc1ccc(OCC)c(NC(=O)C(NS(=O)(=O)c2ccc3c(c2)oc(=O)n3C)C(C)C)c1 (configuration not stated)
→ nt	0	7	9	-9	20627*	-2.6
- O=C(Nc1ccc(Oc2cccc(C(F)(F)F)c2)nc1)c1ccco1
→ 0	-14	2	-30	8	5552	0.7
- Cc1nn2c3ccccc3nc2c2ccccc12
→ 10	9	8	-26	-7	3918	-5.5
- Cc1ccc(C)c(SCC(=O)Nc2cccc(S(=O)(=O)N3CCOCC3)c2)c1
→ nt	2	-2	-11	3	nt	-0.5
- CC(c1ccccc1)N1CCC(CNC(=S)Nc2cccc(Cl)c2)C1 (configuration not stated)
→ -8	1	-4	-12	-6	4450	-1.1
- CC1CCCN(C(=O)COC(=O)c2ccc3[nH]c4c(c3c2)CCCC4)C1 (configuration not stated)
→ -3	10	10	-30	1	nt	0.4
- O=c1[nH]c(Nc2ccccn2)cc2ccccc12
→ 4	nt	nt	-83	nt	3381	nt
- O=C1c2ccccc2C(=O)N1CCCc1nc(-c2cccnc2)no1
→ -10	4	8	-39	-5	9631	-1.8
- CC(=O)NCCc1nc2ccccc2n1CCc1ccccc1
→ -1	-3	3	5	-8	3327	2.1
- Cc1c(C#N)c(N=CN(C)C)c(C(=O)c2ccc(Br)cc2)n1-c1ccc(Cl)cc1
→ 0	0	2	nt	5	11364	2.2
- O=C(CCCc1ccccc1)Nc1ccccc1[N+](=O)[O-]
→ -22	7	5	-22	1	4231	4.5
- O=C(C(O)c1ccccc1)N1N=C(c2ccccc2)CC1(O)C(F)(F)F (configuration not stated)
→ 8	nt	nt	-32	nt	3786	nt
- CC(=O)N1N=C(c2ccc(NS(C)(=O)=O)cc2)CC1c1ccc2nccnc2c1 (configuration not stated)
→ -4	10	-1	-1	4	4227	5.9
- COc1cc2c(cc1OC)CN(C(=O)CCc1c[nH]c3ccccc13)[C@H](C(=O)O)C2
→ -6	-9	11	-3	2	4206	0.9
- CCCCc1ccc(Nc2ncccc2C#N)cc1
→ 2	12	6	-84	7	3141	3.2
- NC(=NCCc1ccccc1)NS(=O)(=O)c1ccccc1F
→ 0	-1	-4	-20	5	6579	4.3
- CS(=O)(=O)N(Cc1ccccc1)c1ccccc1C(=O)N1CCN(c2ccccc2)CC1
→ -6	9	9	-14	6	10606	1.7
- CN(CC(=O)NCc1ccccc1)CC(=O)Nc1ccc(Cl)c(C(F)(F)F)c1
→ nt	4	-1	-17	-8	3585	6.1
- CCS(=O)(=O)C1=NSC2=NC(=O)/C(=C\c3ccc(OC(=O)c4ccco4)c(OC)c3)C(=N)N21
→ -13	-4	-2	-2	-2	4594	1.7
- NNC(=O)CN1C(c2ccc(Br)cc2)=Nc2ccc(Br)cc2C1c1ccccc1 (configuration not stated)
→ -7	-2	0	-33	0	2206	-9.5
- Nc1nonc1C(=O)NCCNCc1ccccc1OCc1ccccc1F
→ 5	15	14	-25	2	7738	3.7
- COc1ccc(OC)c(NC(=O)c2cccc(NC(=O)c3ccccc3C(=O)O)c2)c1
→ -9	5	-8	-21	7	4604	0.6
- Cc1ccsc1/C=N/n1c(-c2ccccc2)n[nH]c1=S
→ -14	nt	nt	-15	nt	2495	nt
- CSCCC(NC(=O)c1ccco1)C(=O)N1CCN(C(c2ccccc2)c2ccccc2)CC1 (configuration not stated)
→ nt	1	3	-30	16	?	-4.8
- CCCCn1c(-c2ccc(F)c(F)c2)nc2cc3[nH]c(=O)c(C(C)C)nc3cc21
→ 11	13	18	-25	2	3868	5.3
- CCc1ccc2nc(N(CCN(C)C)C(=O)/C=C/c3cccs3)sc2c1
→ -9	2	9	-12	7	5521	-8.4
- COc1ccc(Nc2cc(NCCCO)c([N+](=O)[O-])c3nonc23)cc1
→ 11	3	-1	nt	-1	3075	0.2
- CCCCCOC(=O)c1[nH]c2c(c1C)C(=O)CC(c1ccco1)C2 (configuration not stated)
→ 26	nt	nt	59*	8	6840	0.2
- O=C1CN(C(=O)c2cccs2)c2ccccc2N1
→ 1	7	3	0	-4	3229	-2.5
- Cc1noc(C)c1COC(=O)[C@@H](NC(=O)c1ccccc1)C(C)C
→ 1	8	6	-5	-4	4030	6.3
- O=C(CSc1nnc(Cc2ccccc2)n1-c1cccc(Cl)c1)N1CCOCC1
→ -6	13	9	3	-10	4421	13
- Cc1cc(C(=O)NC2CC(C)(C)Cc3c2cnn3-c2cccc(F)c2)nn1C (configuration not stated)
→ -2	-7	-4	-3	12	4690	5.9
- CC1=CCC2C(=O)N(c3nc4ccccc4n3C)C(=O)C2C1 (configuration not stated)
→ 0	2	9	-34	-1	5260	7.2
- N#Cc1cccc(S(=O)(=O)NCCOc2ccccc2F)c1
→ nt	0	1	-15	2	?	0.4
- ON=Cc1cc(Br)cs1
→ nt	8	9	nt	7	nt	4.7
- CC(C)Cc1ccc(C(=O)NCCOc2ccccc2)o1
→ -1	5	2	-27	4	6470	3.6
- O=C(c1ccco1)c1cn(Cc2ccccc2Cl)c2ccccc12
→ 5	2	5	-9	-24	24624*	0.3
- O=C(CNC(=O)c1ccco1)OCC(=O)c1ccccc1
→ -6	1	3	-24	0	14897	0.3
- CC(=Nc1c(C)n(C)n(-c2ccccc2)c1=O)c1c(O)n(Cc2ccccc2)c(=O)[nH]c1=O
→ 0	10	6	-18	16	15982	5.2
- O=C(N[C@H]1C/C=C\C[C@@H](CC(=O)N(CCO)Cc2ccccc2)C(=O)N2CCC[C@H]2COC1=O)OCC1c2ccccc2-c2ccccc21
→ nt	-13	-4	-6	3	2908	2.8
- CCOC(=O)C1(CCOC)CCN(Cc2cc3ccccc3s2)CC1
→ 3	9	0	-17	6	3305	-1.3
- COc1ccc(N2CCN(C(=O)CN3C(=O)NC4(CCCCC4C)C3=O)CC2)cc1 (configuration not stated)
→ nt	13	8	12	12	3099	6.1
- Cn1cc(CNCc2cn[nH]c2-c2ccc(F)cc2)c(-c2ccc3c(c2)OCCO3)n1
→ nt	4	11	-22	3	2308	3.3
- O=C(CCn1ccnc1)Nc1nc2ccccc2[nH]1
→ -8	11	8	-46	4	3844	2.4
- COc1cccc(-n2ccn(CC(=O)NCCc3ccccc3)c(=O)c2=O)c1
→ -4	-1	-8	6	9	4380	8.1
- CC(C(=O)N1CCN(C(=O)OC(C)(C)C)CC1)n1cc(CCC(=O)O)nn1 (configuration not stated)
→ nt	4	8	nt	1	nt	2.7
- Cc1ccc(/C=C2\SC(=S)N(CCCC(=O)Nc3cccc(C(=O)O)c3)C2=O)cc1
→ 0	7	-3	-1	10	4118	7.9
- COc1ccc(NC(=O)CSc2nc3ccccc3c(=O)n2Cc2cccs2)c(OC)c1
→ -11	12	-5	nt	8	nt	2.6
- CCOCCCNC(=O)C1CCC(CNS(=O)(=O)c2ccc(OC)cc2)CC1 (configuration not stated)
→ 7	11	6	-8	6	3883	1.5
- Cc1nn(CC(O)Cn2c3c(c4ccccc42)CCN(C)C3=O)c(C)c1Br (configuration not stated)
→ 5	1	7	-38	-4	10009	2.8
- CCc1ccccc1NC(=O)C/C(C)=N/NC(=O)COc1ccccc1C
→ -1	nt	nt	-5	nt	3671	nt
- COCCn1c(SCC(=O)NCc2ccc(OC)c(OC)c2)nc2ccccc21
→ 2	-10	3	3	4	3684	4.5
- O=C(Cc1ccc([N+](=O)[O-])cc1)Nc1nccs1
→ -13	-1	6	-13	3	3054	4.8
- CC1(C)N=C(N)N=C(N)N1c1ccccc1
→ 50	nt	nt	-16	1	4122	-6.3
- CC(/C=C/c1ccc2c(c1)OCO2)=NNC(=O)COc1ccc(C)cc1
→ nt	9	3	nt	3	nt	2.9
- C[C@@]12CC(=O)NC1N(C(=O)c1cccc(C(F)(F)F)c1)C(c1ccccc1OC(=O)c1cccc(C(F)(F)F)c1)C2 (some centres not stated)
→ 3	-5	11	-15	-3	4039	9.3
- COc1cccc(C(=O)C2CCCN(Cc3cn[nH]c3C3CCCCC3)C2)c1 (configuration not stated)
→ 3	5	6	-32	3	5071	3.1
- Cc1cc([N+](=O)[O-])ccc1NC(=O)c1sc2ncn(CC(=O)N3CCOCC3)c(=O)c2c1C
→ -3	5	1	-8	-1	4455	-1.2

# (more compounds)
# Every second line gives: BJeLR viability	Mtb hypoxia inh	Mtb hypoxia inh growth	PrP 5UTR inh	ugtP null kill	Bead autofluor	Sa RN4220 lethal
- CCOc1c(Cl)cc(CNc2ccc(N3CCCC3)cc2)cc1OC
→ 15	12	-1	-40	2	4102	-1.6
- Cc1ccc(NC(=S)N/N=C/c2ccc(Cl)c([N+](=O)[O-])c2)cc1
→ 1	nt	nt	-38	nt	11276	nt
- CCOC(=O)c1c(NC(=O)CSc2c[nH]c3ccccc23)sc2c1CCC2
→ 0	2	15	-16	-7	7051	-11
- CCC(c1nnnn1C1CCCC1)N1CCN(c2ccccc2)CC1 (configuration not stated)
→ -2	nt	nt	-18	1	4798	-2.2
- CCCCCNC(=O)c1ccc(NS(=O)(=O)c2ccc3[nH]c(=O)[nH]c3c2)cc1
→ 7	-3	0	-15	3	4608	-0.7
- COc1cc(N)c(Cl)cc1C(=O)OCC(=O)N1CCc2ccccc21
→ nt	5	3	-14	1	4024	-1.0
- COc1cccc(C(C(=O)NC2CCCC2)N(C(=O)c2ccco2)c2cccc(C(C)=O)c2)c1OC (configuration not stated)
→ 3	5	-1	-13	6	4518	6.1
- Oc1ccc(Cl)cc1CNCc1cccc2ccccc12
→ nt	nt	nt	-26	-1	3742	2.9
- OCCNc1cc(-n2nc(-c3ccccc3)cc2-c2ccccc2)ncn1
→ -2	12	15	-9	-5	3846	9.0
- Cc1ccc(-c2nnc(Nc3ccc(CC(N)=O)cc3)c3ccccc23)cc1S(N)(=O)=O
→ -2	-3	-3	nt	5	3754	4.3
- CCNS(=O)(=O)c1ccc(S(=O)(=O)N(Cc2ccccn2)C2CCCCC2)cc1
→ -1	8	7	-10	6	4226	4.7
- CCn1ncc(C2=NOC(C(=O)Nc3c(C)nn(Cc4ccc(F)cc4)c3C)C2)c1C (configuration not stated)
→ 12	0	8	-14	6	6059	2.1
- Cc1cccc(N2CCN(c3nnc(C(F)(F)F)s3)CC2)c1
→ -11	nt	nt	-12	0	4057	4.5
- Nc1cc(=O)[nH]c(=O)n1Cc1ccccc1
→ 1	5	9	-17	2	3795	2.1
- C=CCn1c(C)cc(C(=O)COC(=O)c2n[nH]c(=O)c3ccccc23)c1C
→ nt	4	4	-18	-3	2897	2.5
- CCOc1ccc(C(C)NC(=O)Nc2ccccc2C(=O)OC)cc1 (configuration not stated)
→ 6	5	2	-29	-7	10039	0.6
- CCN(Cc1cc2ccccc2[nH]c1=O)C(=O)C1CCCCC1
→ -5	4	3	-1	14	nt	1.0
- O=C(Nc1ccccc1NC(=O)c1ccc(F)cc1)c1ccc(F)cc1
→ -7	-3	-7	-6	-3	3839	2.9
- CCOc1cccc2cc(-c3nnc(NCc4ccc5c(c4)OCO5)s3)c(=O)oc12
→ -13	11	7	-38	-9	8421	2.6
- COc1cc(-c2ccc(N)c(OC)c2)ccc1N
→ nt	8	1	-10	9	5728	7.0
- Cc1cccc(N2CCN(c3nc4nonc4nc3N3CCSCC3)CC2)n1
→ 19	11	-2	-22	11	3746	4.7
- COc1cc(/C=N/NC(=O)Cn2ccc(C(F)(F)F)n2)cc(OC)c1OC
→ -2	nt	nt	-16	nt	2265	nt
- COc1ccc(-n2c(/C=C3/C(=O)Nc4ccccc43)nc3ccccc3c2=O)cc1
→ -3	13	6	-11	-3	3400	2.2

# One compound at a time, from the list above. Screens in order: BJeLR viability, Mtb hypoxia inh, Mtb hypoxia inh growth, PrP 5UTR inh, ugtP null kill, Bead autofluor, Sa RN4220 lethal
# O=C(CNC(=O)c1ccco1)OCC(=O)c1ccccc1 is entered as -6, 1, 3, -24, 0, 14897, 0.3
# CSCCC(NC(=O)c1ccco1)C(=O)N1CCN(C(c2ccccc2)c2ccccc2)CC1 (configuration not stated) is entered as nt, 1, 3, -30, 16, ?, -4.8
# NC(=NCCc1ccccc1)NS(=O)(=O)c1ccccc1F is entered as 0, -1, -4, -20, 5, 6579, 4.3

# Screens deposited in PubChem by several laboratories.
